# Source: PubChem BioAssay (several laboratories)
# RecA intein inh: Mtb RecA intein splicing inhibitors, primary screen, biochemical, fluorescence, HTS. cell-free RecA intein splicing. inhibition, %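 (about 9 µM by stock and volumes)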. actives 0.75% (n = 290,000). AID 2221, 2009; in the data active = inhibition above about 30%;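 note: 0% = vehicle wells and 100% = reference inhibitor control wells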
# Target sequence (P9WHJ3 whole entry, looked up): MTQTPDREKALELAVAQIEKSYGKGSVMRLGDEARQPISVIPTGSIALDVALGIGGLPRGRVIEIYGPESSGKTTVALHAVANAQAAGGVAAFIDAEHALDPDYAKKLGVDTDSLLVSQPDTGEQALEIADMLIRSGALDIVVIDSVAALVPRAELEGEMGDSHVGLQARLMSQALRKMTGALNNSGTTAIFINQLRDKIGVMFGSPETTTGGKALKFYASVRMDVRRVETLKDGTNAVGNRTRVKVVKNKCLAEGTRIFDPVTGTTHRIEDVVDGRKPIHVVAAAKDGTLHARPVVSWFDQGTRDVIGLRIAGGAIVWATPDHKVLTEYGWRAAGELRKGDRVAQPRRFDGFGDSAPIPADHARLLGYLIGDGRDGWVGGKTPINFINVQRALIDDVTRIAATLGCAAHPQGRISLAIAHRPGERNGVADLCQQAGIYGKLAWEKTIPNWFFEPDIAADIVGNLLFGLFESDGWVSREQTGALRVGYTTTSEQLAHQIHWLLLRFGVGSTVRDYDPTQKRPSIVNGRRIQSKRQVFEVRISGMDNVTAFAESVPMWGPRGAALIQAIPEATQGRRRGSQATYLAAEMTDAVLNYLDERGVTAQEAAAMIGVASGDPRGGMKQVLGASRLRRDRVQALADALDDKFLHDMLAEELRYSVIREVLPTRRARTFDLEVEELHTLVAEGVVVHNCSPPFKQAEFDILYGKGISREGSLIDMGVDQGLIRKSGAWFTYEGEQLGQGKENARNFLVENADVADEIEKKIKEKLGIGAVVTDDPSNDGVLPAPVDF
# Arbovirus inh: antivirals against arbovirus infection, primary screen, cell-based, full library, 10K replicate subset. actives 0.37% (n = 200,000). inhibition, % at 10 µM. arbovirus infection cell-based antiviral screen. AID 1251, 2008;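 active = inhibition from about 30%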;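 note: bluetongue infection of BSR cells; cell survival read as ATP light after 72 h; 0% = infected wells without compound and 100% = uninfected wells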
# Mtb betalactam: beta-lactam sensitization of Mtb H37Rv, H37Rv; M. tuberculosis H37Rv growth with meropenem, percent inhibition; hits of this screen are not shown here; inhibition, % at 25 µM; actives 0.27% (n = 330,000);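 active = about 74% or more and at least 40 points above the plate without the antibiotic, then above 30% in a dose series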;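 note: growth measured after seven days incubation then overnight dye step; 0% = bacteria only wells and 100% = bacteria with antibiotic; twin plates without the antibiotic show which effects depend on it; some results filed as inactive read as strong as hits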
# YopH inh: YopH tyrosine phosphatase inhibitors, primary screen, biochemical, fluorescence Ex485/Em525; YopH tyrosine phosphatase [Yersinia enterocolitica]; inhibition, %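 (about 10 µM by stock and volumes)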; actives 0.16% (n = 140,000); AID 898, 2007;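 active = inhibition of 50% or more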;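 note: controls were vehicle for no effect and minimum signal wells for full effect; inactives centre near -20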
# Mtb growth: M. tuberculosis H37Rv growth inhibitors, H37Rv strain (AID 1626). M. tuberculosis H37Rv growth inhibition; higher % means a stronger effect. one-dose inhibition, % at 10 µM; IC50 in µM for titrated hits. actives 0.95% (n = 220,000);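 active = confirmed in a dose series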;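 note: bacteria incubated seven days before Alamar blue readout; 0% = bacteria only wells and 100% = bacteria with antibiotic wells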
# Arbovirus inh repeat: further read-out of Arbovirus inh, marked with its call; inhibition, %; measured here: 10K subset replicate screen; many hits read low in the repeat;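 first of two repeat runs on a subset; 0% = infected and 100% = uninfected wells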
# Starred values were filed as active, the others as inactive; x = no result given. Some of the compounds tested. The share of hits here may be higher or lower than overall.
# Start of the data: the first five records as a preview:
SMILES,RecA intein inh,Arbovirus inh,Mtb betalactam,YopH inh,Mtb growth,others
COc1cc(C(=O)N2CCN(C(=O)C(Cc3cc(C)ccc3C)NC(C)=O)CC2)cc(OC)c1OC (stereo not drawn),0.0,-1,-3,-30,-5%,Arbovirus inh repeat=-1
CN1CCN(C(=O)CCC(=O)c2ccc(F)cc2)CC1,0.4,7,-2,-2,-11%,
CC(C)CNC(=S)NNC(=O)CC(C)O (stereo not drawn),-0.8,2,-3,x,2%,
COc1nc(N2CCOCC2)nc(-n2cccc2)n1,-0.4,2,-23,-15,-7%,
O=C(c1cc(=O)[nH]c2ccccc12)N1CCc2ccccc2C1,1.1,0,11,x,-1%,

# The list itself, previewed entries included:
SMILES,RecA intein inh,Arbovirus inh,Mtb betalactam,YopH inh,Mtb growth,others
COc1cc(C(=O)N2CCN(C(=O)C(Cc3cc(C)ccc3C)NC(C)=O)CC2)cc(OC)c1OC (stereo not drawn),0.0,-1,-3,-30,-5%,Arbovirus inh repeat=-1
CN1CCN(C(=O)CCC(=O)c2ccc(F)cc2)CC1,0.4,7,-2,-2,-11%,
CC(C)CNC(=S)NNC(=O)CC(C)O (stereo not drawn),-0.8,2,-3,x,2%,
COc1nc(N2CCOCC2)nc(-n2cccc2)n1,-0.4,2,-23,-15,-7%,
O=C(c1cc(=O)[nH]c2ccccc12)N1CCc2ccccc2C1,1.1,0,11,x,-1%,
CN1CCN(C(CNC(=O)C(=O)NC2CCCC2)c2ccc(F)cc2)CC1 (stereo not drawn),-0.5,x,-3,x,x,
NC(=O)CC(NC(=O)c1ccccc1)c1ccc(NCCN2CCOCC2)c([N+](=O)[O-])c1 (stereo not drawn),0.2,x,-4,x,x,
CC(C)C[C@@H](CSc1ccc(Br)cc1)N1CCN(CC(C)C)CCC1=O,6.0,x,0,x,10%,
NC(=O)CCN(C1CCCCC1)S(=O)(=O)c1cccc2nsnc12,-2.7,x,-5,x,x,
CCc1nn2cc(C(=O)c3cc(C)ccc3O)cnc2c1-c1ccc(F)cc1,0.0,7,-4,-25,5%,
COc1ccc(CCNC(=O)c2ccc(OCC(=O)N3CCOCC3)c(OC)c2)cc1,-2.6,x,2,x,x,
CCN1CCN(C(=O)CCN2C(=O)COc3ccc(C)cc32)CC1,-1.7,2,-21,-33,-1%,
CCn1c(CCNC(=O)c2cccs2)nnc1SCC(=O)c1ccc(OC)cc1,0.2,x,5,-40,-1%,
CN(CC(=O)NCCc1ccc(S(N)(=O)=O)cc1)Cc1ccc(Cl)cc1Cl,-0.7,x,-4,x,x,
CCOC(=O)/C=C1\NC(C)(C)Cc2cc(OC)c(OC)cc21,-0.6,16,-9,10,-6%,

# The list goes on (two carried over from the part before).
SMILES,RecA intein inh,Arbovirus inh,Mtb betalactam,YopH inh,Mtb growth,others
CN(CC(=O)NCCc1ccc(S(N)(=O)=O)cc1)Cc1ccc(Cl)cc1Cl,-0.7,x,-4,x,x,
CCOC(=O)/C=C1\NC(C)(C)Cc2cc(OC)c(OC)cc21,-0.6,16,-9,10,-6%,
O=C(COC(=O)CNC(=O)c1ccc(Cl)cc1Cl)NC1CCCCC1,-0.4,x,-1,x,x,
CC12CC(NC(=O)N1c1cccc(C(=O)N3CCN(c4ccccc4)CC3)c1)c1ccccc1O2 (stereo not drawn),2.1,-1,0,-3,-5%,
COc1ccccc1NC(=O)c1cccc(N2C(=O)C3C4C=CC(C4)C3C2=O)c1 (stereo not drawn),5.2,x,-8,x,x,
CCCCn1c(N)c(N(CC(C)C)C(=O)c2ccc(S(=O)(=O)N3CCC(C)CC3)cc2)c(=O)[nH]c1=O,1.7,x,3,x,x,
CCCCOc1ccc(-c2cnc3ccccc3n2)cc1,-0.4,1,65,-18,14%,
Cc1cc(NC(=O)CSc2nc(C(C)C)nc3ccccc23)no1,5.6,10,-6,28,10%,
Cc1ccc(C)c(NC(=O)C2CCCN2/C=C/C(=O)C(F)(F)F)c1 (stereo not drawn),-2.7,11,3,-29,4%,
Cc1cc2c(s1)c1cnn(Cc3ccccc3F)c(=O)c1n2C,7.3,-6,-7,2,-2%,
NC(=O)c1ccc(Oc2cccc3cccnc23)c([N+](=O)[O-])c1,-7.4,-2,-2,x,49%,
COc1ccc(NS(=O)(=O)c2ccc(N3C(=O)CCC3=O)cc2)cc1,-0.6,5,-10,-21,-1%,
CCCOc1cccc(OCC(=O)Nc2nc3ccccc3[nH]2)c1,-1.9,2,53,-32,69%,
c1ccc(-n2cnnc2SCc2cn3ccccc3n2)cc1,2.7,21,-11,-24,-4%,Arbovirus inh repeat=3
CN(CC(=O)Nc1cccc(F)c1)C(=O)c1cn(-c2ccccc2)nc1-c1cccs1,1.1,x,33,x,x,
C=CCNC(=S)N1CCC(Cc2ccccc2)CC1,0.1,x,2,x,x,
COc1ccccc1NC(=O)Nc1nc(CC(=O)Nc2ccc(F)c(F)c2)cs1,-0.5,x,0,x,x,
Cc1ccc(C)c(Oc2coc3cc(OC(=O)c4cccs4)ccc3c2=O)c1,3.1,x,1,-25,-1%,
CCN(CC)CCn1c(NC(=O)c2ccc(C)cc2)nc2ccccc21,-0.5,x,7,x,x,
O=C(CSc1nnc(Cc2cc(=O)[nH]c(=O)[nH]2)n1-c1ccc(F)cc1)NC1CCCC1,-1.8,5,4,-47,-5%,Arbovirus inh repeat=2
CC(=O)NC1=NN(C(C)=O)C2(S1)C(=O)N(C(C)=O)c1ccc(C)cc12 (stereo not drawn),-0.8,8,-7,x,5%,
FC(F)Oc1ccc(NC(=S)NCc2ccccc2)cc1,1.6,15,-4,-21,10%,
O=C(c1cc([N+](=O)[O-])ccc1Cl)N1CCN(c2ccc(F)cc2)CC1,x,2,7,-1,-3%,
O=C(NCC(c1cccs1)N1CCOCC1)c1ccc(Cl)c(S(=O)(=O)N2CCOCC2)c1 (stereo not drawn),1.1,x,-6,x,-2%,
Cc1ccc(C(=O)Nc2nnc(SCC(=O)N3CCCc4ccccc43)s2)cc1,-4.6,9,-7,-14,5%,
COc1ccc(/C=N/NC(=O)C(C)n2cnc3ccccc3c2=O)cc1OC (stereo not drawn),-2.1,-1,4,67*,5%,
O=C(NN1C(=O)c2ccccc2NC1c1ccoc1)c1ccccc1 (stereo not drawn),-1.0,-2,0,x,4%,
Cc1noc(C)c1CCC(=O)O,x,-1,-3,x,-7%,
Cc1ccc(C)c(NC(=S)NC(NC(=O)/C=C/c2ccccc2)C(Cl)(Cl)Cl)c1 (stereo not drawn),1.4,-26,-3,-24,1%,
Cc1ccc(C)c(N2CCN(S(=O)(=O)c3ccc4c(c3)NC(=O)CS4)CC2)c1,7.1,x,2,x,x,
CN1CCOCCOCCN(C)C(=O)N2CCOCCOCCN(CCOCC2)C1=O,-2.6,10,2,-22,0%,
c1cncc(C2CC(c3cccs3)n3ncnc3N2)c1 (stereo not drawn),-3.3,1,-5,-31,-2%,

# Of the compounds above, these contain a Cl atom.
SMILES,RecA intein inh,Arbovirus inh,Mtb betalactam,YopH inh,Mtb growth,others
CN(CC(=O)NCCc1ccc(S(N)(=O)=O)cc1)Cc1ccc(Cl)cc1Cl,-0.7,x,-4,x,x,
O=C(COC(=O)CNC(=O)c1ccc(Cl)cc1Cl)NC1CCCCC1,-0.4,x,-1,x,x,
O=C(c1cc([N+](=O)[O-])ccc1Cl)N1CCN(c2ccc(F)cc2)CC1,x,2,7,-1,-3%,
O=C(NCC(c1cccs1)N1CCOCC1)c1ccc(Cl)c(S(=O)(=O)N2CCOCC2)c1 (stereo not drawn),1.1,x,-6,x,-2%,
Cc1ccc(C)c(NC(=S)NC(NC(=O)/C=C/c2ccccc2)C(Cl)(Cl)Cl)c1 (stereo not drawn),1.4,-26,-3,-24,1%,

# The list goes on.
SMILES,RecA intein inh,Arbovirus inh,Mtb betalactam,YopH inh,Mtb growth,others
Nc1ccc(CCN2CCCC2)cc1,-0.7,x,-2,x,x,
Cc1ccc(CCNC(=O)CN2C(=O)COc3ccc(S(=O)(=O)N4CCCCC4)cc32)cc1,-1.9,x,2,x,x,
CCC(C)NC(=O)CSc1nc2ccccc2c(=O)n1CCCN1CCCCC1 (stereo not drawn),1.4,x,-1,x,x,
O=S(=O)(Cc1ccc(Cl)cc1)NCC1CCCO1 (stereo not drawn),0.5,-2,-2,13,-10%,
O=C(CN(C(=O)c1ccccc1Cl)N1C(=O)CCCC1=O)c1ccc(Cl)cc1,-0.1,-1,-1,x,5%,
CC(C)CNC(=O)NC(=O)COc1c(F)c(F)cc(F)c1F,-0.1,-1,-15,18,0%,
CCN1C(=O)[C@@H]2[C@H](C1=O)[C@@H]1C(=O)Nc3ccccc3C(=O)N1[C@@H]2c1ccc(OC)cc1,-0.4,x,-4,x,x,
COc1cccc(SCc2noc(C(=O)NCc3ccccc3)c2C(=O)NCc2ccccc2)c1,-0.8,x,-16,x,1%,
CC(C)C[C@H](NC(=O)NCCc1ccc(Cl)cc1)C(=O)O,-2.0,0,-1,5,-3%,
CCN(CC)S(=O)(=O)c1ccc(N/N=C/c2ccccc2OCC(=O)O)c([N+](=O)[O-])c1,-0.4,7,-5,x,4%,
CC(C)=C1C2CCC1C1C(=O)N(c3ccc(C)c(C)c3)C(=O)C21 (stereo not drawn),-0.6,3,-5,-18,2%,
CCOC(=O)C1=C(c2ccccc2)Nc2nc(C)nn2C1c1cccc(OC)c1OC (stereo not drawn),7.7,3,-11,-179,7%,
CC(=O)c1c(C)[nH]c(C(=O)OCc2ccccc2F)c1C,-3.3,8,-6,x,1%,
COC(=O)C1C(c2ccc(OC)cc2)NC(=O)NC1(O)C(F)(F)Cl (stereo not drawn),-2.2,14,-4,x,0%,
C(=N\N1CCN(c2ccccn2)CC1)/C1=C(N2CCOCC2)C(=C/c2ccccc2)/CC1,-0.9,7,5,x,7%,
CCCC(c1nnnn1C(C)(C)CC)N1CCN(C2CCCC2)CC1 (stereo not drawn),x,0,-8,-36,4%,
O=C(CNC(=O)c1ccccc1Cl)N/N=C/c1ccc([N+](=O)[O-])s1,-0.5,-15,93,-22,7%,
CC(C)(C)C(=O)Nc1ccc(N2CCCC2)cc1,0.9,-1,3,-25,0%,
CN1CCN(C(=O)C(C(=O)c2ccc(F)cc2)n2ccccc2=O)CC1 (stereo not drawn),-2.6,2,2,-37,-5%,
CCCC(=O)N(c1ccc2oc(C)c(C(C)=O)c2c1)S(=O)(=O)c1ccc(C(=O)O)cc1,-0.2,x,-5,x,x,
Cc1ccc2[nH]c(=O)c(CN(Cc3ccco3)C(=O)CN3CCCC(C)C3)cc2c1 (stereo not drawn),-2.7,-2,-3,x,-5%,
O=C(O)c1ccc(-n2nc(C(F)(F)F)c3c2-c2ccoc2CC3)cc1,-4.2,-3,-10,-23,-7%,
O=C1Nc2ccccc2SC1c1ccccc1 (stereo not drawn),3.2,x,2,x,x,
O=c1[nH]c(O)c(N=Nc2ccc3c(c2)OCCO3)c(=O)[nH]1,-1.8,3,0,x,0%,
N#Cc1c(NC(=O)Cn2c(=O)oc3ccccc32)oc(-c2ccccc2)c1-c1ccccc1,1.9,-12,16,-35,2%,
Cn1c(Cc2ccc3c(c2)OCO3)nnc1SCC(=O)N1CCc2ccccc2C1,1.2,-2,-8,-27,-8%,
CCOc1ccc(CN2CCN(c3ncnc4scc(-c5ccccc5)c34)CC2)cc1,-1.2,x,93,x,x,
O=C(O)CCNc1ccc(Cl)cc1,x,x,4,x,-19%,
CC(=NC1CC1)c1c(-c2ccccc2)[nH]n(-c2nc3ccccc3s2)c1=O,1.3,7,67,-8,5%,
O=C(CSc1n[nH]c(=O)[nH]c1=O)N/N=C/c1ccccc1O,-5.0,2,1,-38,-4%,
NS(=O)(=O)c1ccc(CCNCc2ccccc2OCc2ccc(F)cc2)cc1,-0.5,x,2,x,x,
Cc1cc(C2C(C#N)=C(N)OC3=C2C(=O)CCC3)c(C)s1 (stereo not drawn),2.7,1,-1,-10,-1%,
O=C(NCc1ccc(F)cc1)c1ccc(CS(=O)(=O)Cc2ccccc2F)o1,-1.2,3,0,-28,-2%,
O=C(NC(Cc1ccccc1)C(=O)OCC(=O)N1CCc2ccccc21)c1ccco1 (stereo not drawn),6.8,-5,20,-29,3%,
Cc1ccc(-c2nnc(SCc3nc4ccccc4[nH]3)n2Cc2ccco2)cc1,-0.9,10,-3,-34,x,
[O-][n+]1c2ccccc2[n+]([O-])c2cc(O)ccc21,2.0,x,60,x,x,
O=C(NCCSCc1ccco1)c1ccc(CN2CCOCC2)cc1,-5.1,-2,-1,-2,5%,Arbovirus inh repeat=1
O=C(N/N=C/c1cn(-c2ccccc2)nc1-c1cc2ccccc2o1)c1ccccc1Br,0.8,-26,39,-10,6%,
COc1ccc(-c2cc(=O)oc3cc(OCC(=O)c4cccc([N+](=O)[O-])c4)ccc23)cc1,1.0,-18,x,6,11%,
COc1ccc(-c2nnn(CC(=O)c3ccc4c(c3)OCCO4)n2)cc1OC,-0.9,-6,-4,-32,-4%,
CCCC(C)NC(=O)C1c2ccccc2Oc2ccccc21 (stereo not drawn),1.8,x,0,x,x,
